Compound activity as filed in PubChem BioAssay.
MLL AF4-AF9 inh: inhibitors of AF4 peptide binding to AF9, primary screen, biochemical, AlphaScreen, biotin-AF4 peptide, FLAG-AF9, single point; inhibition, % at 10 µM; AID 651704, 2012; 350,000 compounds, 0.47% hits; Protein AF-9 (Homo sapiens), P42568;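 active = every replicate reaching a set inhibition limit, whatever the replicate mean, cut at about 25% in these data; inconclusive = mean inhibition reaches that limit but some replicates miss it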;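 note: 0% = plate neutral control median and 100% = total signal loss; the record names both 10 and 1 µM as test concentration; the first replicate is given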
Target sequence (P42568 whole entry, looked up): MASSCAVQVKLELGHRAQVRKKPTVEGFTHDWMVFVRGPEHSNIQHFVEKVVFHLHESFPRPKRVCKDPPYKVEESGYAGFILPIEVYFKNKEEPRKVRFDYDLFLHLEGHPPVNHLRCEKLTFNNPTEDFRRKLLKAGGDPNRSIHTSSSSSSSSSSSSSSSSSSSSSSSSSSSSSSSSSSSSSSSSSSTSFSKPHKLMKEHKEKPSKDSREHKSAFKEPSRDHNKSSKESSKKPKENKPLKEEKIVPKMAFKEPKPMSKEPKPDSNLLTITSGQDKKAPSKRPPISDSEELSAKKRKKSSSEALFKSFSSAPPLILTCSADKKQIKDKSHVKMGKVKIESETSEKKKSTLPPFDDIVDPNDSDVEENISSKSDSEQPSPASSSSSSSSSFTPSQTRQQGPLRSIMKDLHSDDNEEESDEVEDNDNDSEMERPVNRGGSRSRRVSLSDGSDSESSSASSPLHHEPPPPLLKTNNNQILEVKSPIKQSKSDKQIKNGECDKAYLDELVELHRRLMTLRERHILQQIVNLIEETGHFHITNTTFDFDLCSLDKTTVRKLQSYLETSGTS
Beta cell apopt: inhibitors of cytokine-induced beta cell apoptosis, primary screen, luminescence; INS-1E cytokine-induced death, ATP luminescence, 48 h; percent of positive-control rescue, neutral wells zero; protection from apoptosis, % (test concentration not listed); 300,000 compounds, 0.8% hits;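 active = all replicates at 75% or more, or half of them and the mean; inconclusive = half reach 75% but not the mean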;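 note: 0% = cytokine-treated negative control wells and 100% = positive control rescue; higher means more ATP so stronger rescue from cytokine killing; wells of about 40 µL received 100 nL stock; the first replicate is given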
Ecoli growth: E. coli growth inhibition, primary screen, OD600; 330,000 compounds, 0.21% hits; AID 1053175, 2014; Escherichia coli growth, 23 h; hits give low values; OD600 absorbance (no concentration beside the values);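 active = OD600 absorbance below the run mean of sample wells minus 3.6 SD, in any replicate, cut at about 0.56 in these data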;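 note: stock transfer was 300 nL into about 60 µL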
T cruzi repl: inhibitors of intracellular T. cruzi growth, primary screen, luminescence, NIH3T3 host cells; T. cruzi beta-gal in NIH3T3, 90 h; AID 1885, 2009; inhibition, % (concentration not given with the values); 300,000 compounds, 1.4% hits;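 active = mean inhibition across valid replicates above about 55%, limit read from the data; inconclusive = mean below that limit but half or more replicates reach it; inactive = mean below it, under half of replicates reach it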;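 note: signal also drops with host cell toxicity which is not excluded here; 0% = plate median of DMSO wells and 100% = zero luminescence signal; higher percent means less beta-gal luminescence so fewer parasites; stock transfer was 50 nL into about 50 µL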
UCH37 inh: inhibitors of human UCH37 deubiquitinase, primary screen, biochemical, Ub-AMC cleavage, fluorescence | AID 588478, 2011 | inhibition, % (no concentration beside the values) | 330,000 compounds, 0.33% hits | purified proteasome/UCH37;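 active = mean of two replicates above 20%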;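 note: 0% = compound-free wells with enzyme and 100% = wells lacking proteasome; stock transfer was 100 nL into about 20 µL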
Target sequence (Q9Y5K5 whole entry, looked up): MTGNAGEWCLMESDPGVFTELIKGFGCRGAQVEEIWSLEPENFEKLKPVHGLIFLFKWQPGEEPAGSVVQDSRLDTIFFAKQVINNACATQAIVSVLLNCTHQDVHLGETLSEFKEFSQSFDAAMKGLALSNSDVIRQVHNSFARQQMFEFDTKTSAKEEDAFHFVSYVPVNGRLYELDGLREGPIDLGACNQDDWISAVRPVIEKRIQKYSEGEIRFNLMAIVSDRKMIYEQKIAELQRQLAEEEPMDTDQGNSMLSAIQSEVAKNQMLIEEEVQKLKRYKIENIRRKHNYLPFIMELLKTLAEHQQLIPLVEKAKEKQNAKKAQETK
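Material: Human UCH37 enzyme supplied as purified proteasome complex | Schedule: 30 min compound-proteasome preincubation then 25 min substrate reaction, room temperature | Detection: AMC fluorescence from Ub-AMC cleavage, excitation 355 nm, emission 460 nm | Benchmarks: Wells without proteasome as full block, compound-free enzyme plus substrate as uninhibited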
Ecoli rRNA inh: reduced GFP signal of wild-type E. coli, primary screen, bacterial rRNA inhibitor project, GFP/RFP fluorescence, OD600, single point. E. coli WT GFP vs humanized-ribosome RFP mutants, 24 h; hits give low values; DMSO median 0, no signal -100. GFP signal change (wild-type ribosome), % (no concentration beside the values). 350,000 compounds, 1.6% hits. AID 720706, 2013;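 active = significant combined selectivity score with lowered wild-type GFP, culture density cut under 30%, mutant RFP and density less affected; inactive = any of these conditions unmet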; note: one replicate is shown; some compounds called inactive have numbers as strong as hits
Bfl-1 A1 inh: caspase 3/7 activation in MEF A1-2A-BIM cells, primary screen, A1 inhibitor project, cell-based, luminescence, HTS | 330,000 compounds, 0.066% hits | caspase activation, % (test concentration not listed) | Caspase-Glo 3/7 luminescence, 3 h; percent of clofoctol response, vehicle zero;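 active = over half of replicate activation scores above 10%, or exactly half above 10 with the replicate mean above 10; inconclusive = replicate mean below 10 yet half the replicates above 10; inactive = over half of replicates below 10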;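 note: wells of about 30 µL received 50 nL stock; many hits fall short of the cut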
FGF22 binding: binders of human FGF22 protein, primary screen, FGF22 synaptogenesis inhibitor project, biophysical, thermal shift, single point | calls only at 9.99 µM | recombinant FGF22 thermal shift, SYPRO orange fluorescence; percent of sucrose octasulfate shift, DMSO zero | Fibroblast growth factor 22 (Homo sapiens), Q9HCT0 | 340,000 compounds, 1.5% hits;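 active = melting point raised past a set limit in the mean and every replicate; inconclusive = no clear call; three in four hits are not shown here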
Target sequence (Q9HCT0 whole entry, looked up): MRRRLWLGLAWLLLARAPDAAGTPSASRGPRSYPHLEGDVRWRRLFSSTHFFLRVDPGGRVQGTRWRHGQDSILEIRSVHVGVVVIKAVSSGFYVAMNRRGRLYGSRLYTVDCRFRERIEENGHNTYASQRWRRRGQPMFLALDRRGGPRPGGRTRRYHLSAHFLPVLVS
Ecoli rRNA inh OD600: second read-out of Ecoli rRNA inh, no call of its own (marks repeat the call); OD600 change, %; measured here: OD600 growth;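 optical density of the mix in the first replicate; 0 = DMSO median and -100 = no signal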
Ecoli rRNA inh RFP: also measured in Ecoli rRNA inh; calls as there; RFP signal change, %; measured here: RFP humanized mutant strains;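 first replicate; 0 = DMSO median and -100 = no signal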
The depositor's hits bear a star; i = inactive; ? = inconclusive; / = no result given. These rows are one share of the data, so the mix of outcomes need not match the whole.

SMILES	MLL AF4-AF9 inh	Beta cell apopt	Ecoli growth	T cruzi repl	UCH37 inh	Ecoli rRNA inh	Ecoli rRNA inh OD600	Ecoli rRNA inh RFP	Bfl-1 A1 inh	FGF22 binding
Cn1nc(C(C)(C)C)c([N+](=O)[O-])c1C(N)=O	-2.4	1	0.67	-6	6.5	17	17	-1.2	2.2	i
CCCCNC(=O)CCn1c(=O)c2ccccc2n(CC(=O)Nc2ccccc2OCC)c1=O	/	-4	0.75	5	3.5	/	/	/	-0.4	/
COc1ccc(CCNC(=O)CNS(=O)(=O)c2ccc(Br)cc2)cc1	-3.5	-1	0.61	-8	7.2	12	14	0.5	-0.2	i
CCc1ccc(CNC(=O)CCS(=O)(=O)Cc2ccccc2F)cc1	-5.3	-2	0.64	-8	1.2	8	12	0.2	-0.2	i
NC(=O)C1CCN(C(=O)C(Cc2ccccc2)NC(=O)c2ccccc2)CC1 (centres undefined)	-1.4	2	0.64	/	0.2	2	6	-3.1	0.3	i
Fc1ccc(-c2csc(N3CCC(c4ccccc4)C3)n2)cc1 (centres undefined)	/	7	0.66	-6	0.4	/	/	/	0.5	/
NC(=S)N/N=C/c1ccc2ccccc2c1	-1.7	6	/	58*	/	-4	-2	-5.6	-1.6	i
O=C(CSc1ccc2nnc(-c3cccs3)n2n1)N1CCCC1	-1.2	2	0.72	0	1.3	7	6	-2.8	0.9	i
CCC(=O)N1CCn2c1nc1ccccc12	7.9	-8	0.75	-16	1.9	17	12	-5.6	-0.1	i
CCN1CCN(CC(O)COc2cccc(OC)c2)CC1 (centres undefined)	/	-9	0.76	2	2.7	/	/	/	0.8	/
Cc1noc(C)c1COc1ccccc1C(=O)NC1CCC(C)CC1 (centres undefined)	-0.9	-3	0.67	6	2.7	1	3	-2.0	-0.7	i
CC1(C)C(c2cccs2)=[N+]([O-])C2(CCCCC2=O)N1O (centres undefined)	-20	/	0.63	-17	1.7	13	13	-3.6	0.0	i
CCOc1ccc(S(=O)(=O)Nc2ccc(O)c(Sc3ncn[nH]3)c2)cc1	/	/	0.68	-27	3.8	/	/	/	0.7	/
CCCCc1ccc(NC(=O)C(C)CC)cc1 (centres undefined)	-4.5	5	0.66	16	0.2	0	-1	-4.4	0.2	i
CN(CC(=O)N1CCCCCC1)S(=O)(=O)c1ccc(Br)cc1	-0.9	-5	0.7	-4	2.7	-3	-9	0.1	0.3	i
CC1(C)CC(=O)C(=Cc2cn(CCC#N)nc2-c2ccc(F)cc2)C(=O)C1	-3.0	-11	0.68	-3	2.1	23	18	2.2	0.5	i
O=C(CCNS(=O)(=O)c1ccccc1)N1CCCC1	-1.3	-9	0.65	-12	3.3	10	18	-0.5	2.2	i
CCCCOc1ccc(C(=O)N2CCC(C)CC2)cc1	/	4	0.66	10	1.9	/	/	/	0.8	/
COc1ccc(S(=O)(=O)N2CCCC2)cc1NC(=O)c1ccccc1	-0.9	-4	0.67	-16	3.0	2	5	-2.6	0.7	i
COc1cccc(CC(=O)N2CCCC(CCC(=O)N3CCN(c4ccccn4)CC3)C2)c1 (centres undefined)	-1.3	-9	0.67	21	-0.2	-1	0	2.1	0.9	/

Full records as entered above.
Profile of CCCCOc1ccc(C(=O)N2CCC(C)CC2)cc1 → MLL AF4-AF9 inh: /; Beta cell apopt: 4; Ecoli growth: 0.66; T cruzi repl: 10; UCH37 inh: 1.9; Ecoli rRNA inh: /; Ecoli rRNA inh OD600: /; Ecoli rRNA inh RFP: /; Bfl-1 A1 inh: 0.8; FGF22 binding: /
Profile of CCCCc1ccc(NC(=O)C(C)CC)cc1 (centres undefined) → MLL AF4-AF9 inh: -4.5; Beta cell apopt: 5; Ecoli growth: 0.66; T cruzi repl: 16; UCH37 inh: 0.2; Ecoli rRNA inh: 0; Ecoli rRNA inh OD600: -1; Ecoli rRNA inh RFP: -4.4; Bfl-1 A1 inh: 0.2; FGF22 binding: i

(continued)
SMILES	MLL AF4-AF9 inh	Beta cell apopt	Ecoli growth	T cruzi repl	UCH37 inh	Ecoli rRNA inh	Ecoli rRNA inh OD600	Ecoli rRNA inh RFP	Bfl-1 A1 inh	FGF22 binding
COc1cc(/C=C2\SC(=O)N(c3ccccc3Cl)C2=O)cc([N+](=O)[O-])c1O	5.6	/	0.67	8	14	5	6	0.4	/	i
Cc1cc(C(=O)COC(=O)c2cccnc2Cl)c(C)n1C	1.6	-5	0.67	/	-0.1	7	-6	-0.3	-11	i
Fc1cccc(-c2ncc(-c3ccccc3)o2)c1	-7.1	/	0.66	/	-22	/	/	/	/	i
Cn1ccnc1COc1ccc(/C=N/O)cc1	-1.1	-5	/	-3	/	5	11	-2.3	-2.6	i
COc1ccc(/C=N/Nc2nc(C)nc(N)n2)cc1	2.4	-1	/	-8	/	-3	8	-1.9	-2.2	i
CC(=O)c1ccc(C)cc1OC(=O)c1cccc(F)c1	-0.7	0	0.66	-16	5.3	-2	8	5.5	0.9	/
COc1ccc(CN(CC2CCC(C(=O)O)CC2)C(=S)Nc2ccccc2C)cc1 (centres undefined)	-2.0	-1	0.7	-2	6.0	12	10	0.7	-0.6	/
Cc1cc(NC(=O)Nc2c[nH]c(=O)[nH]c2=O)ccc1Br	-2.7	-9	0.69	-13	2.4	15	6	2.2	1.5	i
Cc1cc(C)c2c(N)c(C(=O)N/N=C/c3cccnc3)sc2n1	18	-2	/	2	/	22	25	5.8	1.8	i
COc1cc(Cl)ccc1OCc1cc(C(=O)N2CCN(C)CC2)no1	-2.9	-4	0.67	-1	2.5	2	5	-1.1	2.4	i
CCO[C@@H]1OC(C(=O)N2CCOCC2)=C[C@H](c2ccc(C(F)(F)F)cc2)[C@H]1CCCO	-15	4	/	-19	6.3	5	1	14	-0.4	i
COc1cc2c(cc1OC)n(CC(=O)NC1CCCCCC1)n1c(C)cc(=O)nc21	-14	-2	0.68	12	i	1	6	-2.2	-0.2	i
O=C(Nc1ccc(O)cc1)c1ccc(NC(=O)c2ccco2)cc1	1.9	14	0.68	-1	6.1	-38	-44	-2.3	-0.6	i
Cc1oc(-c2cccs2)nc1CN1CCC(C(=O)N2CCCC2)CC1	0.3	-1	0.69	-14	-2.8	15	19	2.8	0.5	i
O=C1CCC(=O)N1c1ccccc1	1.9	-4	0.65	-16	4.7	22	9	2.5	0.5	i
Cc1ccc(NC(=O)CC2(CC(=O)O)CCCC2)c(C)c1	3.2	/	0.65	7	-0.1	1	10	-0.1	0.9	i
COCCn1cnc2c1c(=O)n(CC#N)c(=O)n2Cc1ccccc1	-0.8	0	0.67	-7	6.6	14	15	2.2	1.2	i
O=C(CN1C(=O)NC2(CCCCCC2)C1=O)Nc1ccc(Br)cc1Br	-2.9	-2	0.71	/	0.1	-13	-14	-2.9	0.3	i
CCOc1ccc(CN2CCNC(=O)C2CC(=O)NCc2cc(C)n(C)n2)cc1 (centres undefined)	1.1	-4	0.72	5	1.4	4	1	0.1	0.9	i
COCCn1c(=O)[nH]c2cc(C(=O)Nc3cccc(F)c3)ccc2c1=O	-0.3	-5	0.66	2	0.7	-5	6	-0.4	-0.5	i
O=C(Nc1nccs1)c1cccc2ccccc12	-0.8	-2	0.62	0	0.0	-3	1	0.7	0.3	i
CCOC(=O)CN(C(=O)COc1nc(-c2ccccc2)cc(C)c1C#N)c1ccc(F)cc1	-0.7	0	0.68	14	-41	3	13	2.4	0.4	i
CCCOc1ccc(C(=O)NCC(c2cccs2)N(C)C)cc1OC (centres undefined)	/	-6	0.68	-1	3.4	/	/	/	-0.2	/
COc1cc(N)c(Cl)cc1Cl	-2.5	-19	0.66	0	1.1	10	1	-1.4	0.3	/
O=S1(=O)N=C(N(CCO)/N=C/c2ccc(Br)cc2)c2ccccc21	-3.4	8	/	-5	/	8	6	-0.5	0.2	i
COCCNC(=S)N1CCC(Cc2ccccc2)CC1	0.6	0	0.67	?	3.9	-5	2	0.7	1.0	i
COC(=O)c1[nH]c2cc(OC)ccc2c1NC(=O)CN1CCC(C(N)=O)(N2CCCCC2)CC1	/	2	0.8	-2	-3.8	/	/	/	0.5	/
O=C(NCc1cn2ccsc2n1)c1cccs1	-7.0	11	0.7	-7	5.4	2	11	-1.3	0.5	i
COc1cc(/C=N/Nc2ccccc2)ccc1O	5.1	-1	/	-6	/	-2	8	-0.6	-1.2	i
CC(=O)NNC(=S)Nc1cccc(F)c1	-3.2	-8	0.7	-6	3.6	12	15	-0.6	0.2	i
CN(C)S(=O)(=O)c1cccc(NC(=O)CC23CC4CC(CC(C4)C2)C3)c1	0.5	2	0.69	24	5.6	-5	-7	-0.4	0.0	i
COc1cccc(CN2CCN(Cc3cccc4nonc34)CC2CCO)c1 (centres undefined)	0.6	/	0.69	27	1.9	6	5	0.3	0.1	i
FC(F)(F)c1ccc2c(c1)N1CCCC1CN2 (centres undefined)	8.6	0	0.73	-15	-7.9	6	16	25	-1.0	i
O=C(NCC(=O)N(c1ccc(Cl)cc1)C(C(=O)NC1CCCC1)c1cccnc1)c1ccco1 (centres undefined)	-5.6	-8	0.62	-5	0.7	5	4	0.7	-0.3	i
O=C(O)c1ccc(S(=O)(=O)Nc2ccc3c(c2)OCCO3)cc1	0.1	-3	0.65	-8	-0.2	3	9	-0.9	-0.1	i
CCc1cccc(C)c1NC(=O)CN1C(=O)NC(Cc2ccccc2)C1=O (centres undefined)	-3.0	-2	0.75	-8	4.7	28	26	2.9	-0.3	i
COc1ccc(C(c2c(NC(C)=O)sc3c2CCCC3)N2CCN(CCO)CC2)cc1OC (centres undefined)	5.0	-1	0.72	-2	6.8	2	0	4.7	-0.6	i
COc1ccc(CCNC2=CC(=O)CC(C)(C)C2)cc1	3.1	2	0.67	14	5.4	4	5	2.3	0.5	i
COc1ccc(C2=NCCn3nc4cc(OC)ccc4c32)cc1	1.1	-1	0.73	/	-0.4	-4	-5	-10	-0.2	i
CC(C)Oc1ccccc1NC(=O)CSc1nccn1C	-2.8	-4	0.67	1	4.7	5	-1	-0.7	-0.7	i
CCc1nnc(NC(=O)C2CCCN2C(=O)Nc2ccc(C)cc2)s1 (centres undefined)	-1.7	-5	0.66	-11	2.2	2	6	-0.2	-0.2	i
Cc1c(Cl)cccc1NC(=O)CNC(=O)CCS(=O)(=O)c1ccc(F)cc1	-1.3	1	0.7	/	-2.2	3	1	7.5	-0.3	i
CCn1c(CNc2nc3ccccc3n2C(C)C)nc2ccccc21	/	-3	0.67	-5	5.4	/	/	/	-0.6	/
